# Source: PubChem (National Center for Advancing Translational Sciences (NCATS))
# Cruzain inh Det = blocks cruzain activity in presence of Triton detergent | P25779 | purified cruzain, Z-FR-AMC fluorescence, 0.01% Triton | Potency, µM, for inactives: max response, negative = inhibition, usual class: inhibitors | 200,000 compounds, 0.43% hits | AID 1478; active = well fitted curve in the direction sought with a large enough effect; inconclusive = small, poorly fitted or top-dose-only effect, or another doubt; inactive = no such curve, though single readings can be large; an effect the other way counts as inactive or inconclusive;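 note: plate controls were neutral wells for no effect and buffer without enzyme for full effect; nearly all actives have a fitted effect of over 40% in size; top concentration of the series not given in the record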
# Target sequence (P25779 123-467 limits assumed): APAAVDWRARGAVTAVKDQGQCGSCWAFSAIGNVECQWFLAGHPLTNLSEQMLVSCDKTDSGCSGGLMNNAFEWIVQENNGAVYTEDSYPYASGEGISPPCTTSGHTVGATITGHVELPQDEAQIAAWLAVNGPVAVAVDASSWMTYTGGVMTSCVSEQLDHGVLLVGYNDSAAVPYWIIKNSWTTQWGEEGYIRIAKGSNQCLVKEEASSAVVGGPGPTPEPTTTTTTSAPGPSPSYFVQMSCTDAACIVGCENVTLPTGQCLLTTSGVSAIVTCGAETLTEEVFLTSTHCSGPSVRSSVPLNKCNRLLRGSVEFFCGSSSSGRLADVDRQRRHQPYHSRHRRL
#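 Z-FR-AMC hydrolysis (2 uM substrate) by cruzain (1.5 nM) monitored kinetically at ex 360/em 450 nm after 15 min room-temperature compound exposure; 0.01% Triton X-100, pH 5.5, 5 mM DTT.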
# Cruzain noTriton = cruzain (T. cruzi) inhibition without detergent. P25779. purified cruzain, Z-FR-AMC fluorescence, no detergent. Potency, µM, inactives show max response, negative = inhibition, usual class: inhibitors. 200,000 compounds, 2.3% hits. AID 1476; active = well fitted curve in the direction sought with a large enough effect; inconclusive = small, poorly fitted or top-dose-only effect, or another doubt; inactive = no such curve, though single readings can be large; an effect the other way counts as inactive or inconclusive;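 note: plate controls were enzyme without inhibitor for no effect and buffer without enzyme for full effect; nearly all actives have a fitted effect of over 40% in size; top concentration of the series not given in the record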
#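 Detergent-free condition (0.00005% Triton X-100) in acetate buffer pH 5.5 with DTT. 1.5 nM enzyme and compound were pre-mixed 15 min, then 2 uM Z-FR-AMC substrate added; reaction progress from fluorescence change between first and third reads (60 s).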
# RE007 growth inh = less growth of the S. pombe RE007 Vpr strain; S. pombe RE007 Vpr strain, BacTiter-Glo ATP luminescence, 24 h; control for the full effect not named in the record; Potency, µM (titrated, usually from 92.2 µM), for the others: top-dose activity change, negative = less growth; 360,000 compounds, 0.21% hits; AID 651644; active = well fitted falling curve with a large enough effect; inconclusive = small, poorly fitted or top-dose-only effect; inactive = no such curve, though single readings can be large or run the other way;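 note: % is set by controls: 0 for no effect and ±100 for the full control effect; nearly all actives have a fitted effect of over 50% in size; the assay follows cell death caused by Vpr and the record does not say whether a fall means rescue or toxicity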
#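 Fission yeast strain RE007, carrying one chromosomally integrated HIV-1 vpr copy, was seeded at OD 0.01 in PMG+AL medium with 23 nL pinned compound. After 24 h at 30 °C and 99% humidity, viability was read by BacTiter-Glo luminescence.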
# Marburg entry inh = Marburg virus entry inhibition | Marburg virus pseudotyped entry inhibition, cell reporter; control for the full effect not named in the record; about a third of the inactives were read at about 46 µM | Potency, µM (series often up to 37.8 µM), for inactives: at the top dose activity change, negative = inhibition, usual class: inhibitors | 300,000 compounds, 1.8% hits; active = well fitted inhibition curve with a large enough effect; inconclusive = small, poorly fitted or top-dose-only effect, or effect the other way; inactive = flat fitted curve, though single readings scatter; tested in HEK293 cells; about a fifth of its hits are not listed in these tables; note: % is set by controls: 0 for no effect and ±100 for the full control effect; luciferase read-out
# SARS PLP yeast = SARS-CoV PLP inhibition in yeast | S. cerevisiae expressing SARS-CoV PLpro, growth rescue; control for the full effect not named in the record | 330,000 compounds, 0.19% hits | Potency, µM (series often up to 32.9 µM), inactives show at the top dose activity, positive = growth rescue | AID 485353; note: 0% is about no effect; nearly all actives have a fitted effect of over 55% in size; growth read by luminescence after 48 h
# NS1 inh = influenza NS1 inhibition | S. cerevisiae slowed by influenza A NS1, growth recovery by OD600 | Potency, µM (doses to about 46.1 µM), without a hit: at the top dose activity, positive = more growth | 270,000 compounds, 0.4% hits; note: actives are rising curves; nearly all actives have a fitted effect of over 50% in size
#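 OD600 was taken as the measure of yeast growth restored by compound in an NS1-expressing S. cerevisiae strain. Cells had been washed out of glucose medium and diluted 1:100 into galactose -URA medium, pH 6.0.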
# StopGo reporter = lowers the luciferase signal of an FMDV 2A StopGo reporter; human cells with a luciferase reporter of 2A StopGo recoding; control for the full effect not named in the record; Potency, µM (series often up to 57.9 µM), for inactives: at the top dose signal change, negative = less light; 410,000 compounds, 1.2% hits; active = well fitted falling curve with a large enough effect; inconclusive = small, poorly fitted or top-dose-only effect; inactive = no such curve, though single readings can be large or run the other way; tested in HEK293T cells; note: % is set by controls: 0 for no effect and ±100 for the full control effect; nearly all actives have a fitted effect of over 45% in size; luciferase light after 4 h
# LASV entry inh = inhibitors of Lassa virus binding or cell entry; Lassa virus pseudotype entry inhibition, cell reporter; control for the full effect not named in the record; Potency, µM (highest dose often 37.9 µM), for the others: at the top dose activity change, negative = inhibition, actives largely listed as inhibitors; 300,000 compounds, 1.2% hits; AID 540256; active means well fitted inhibition curve with a large enough effect; inconclusive means small, poorly fitted or top-dose-only effect, or effect the other way; inactive means flat fitted curve, though single readings scatter; tested in HEK293 cells; note: % is set by controls: 0 for no effect and ±100 for the full control effect; nearly all actives have a fitted effect of over 50% in size; luciferase read-out
# * = called active by the depositor; ? = inconclusive; · = no result given; & = joins results of further samples; [ ] = another dose, or the depositor's remark. Unless noted, calls come from the whole dose curve; as a rule, active means well fitted rising curve with a large enough effect; inconclusive means small, poorly fitted or top-dose-only effect; inactive means no such curve, though single readings can be large or run the other way. Potency is the fitted concentration of half-maximal effect.
compound,SARS PLP yeast,Cruzain noTriton,Cruzain inh Det,Marburg entry inh,StopGo reporter,NS1 inh,RE007 growth inh,LASV entry inh
Cc1cc(OCC(=O)NCCCN2CCCC2=O)c2c(C)c(C)c(=O)oc2c1,2%,·,·,22%[46.1 µM],5%,16%,-4%,-18%[46.1 µM]
CCC(Oc1ccccc1)C(=O)Nc1cc(C)on1 (configuration not stated),-2%,-3%,-4.0%,·,30%,5%,-1%,·
COc1ccc(Cc2nnc(SCC(=O)Nc3ccccc3C#N)o2)cc1,1%,·,·,12%,-18%,11%,19%,11%
COc1ccc(S(=O)(=O)N(C)c2ccc(C(=O)N3CCCC3)cc2)cc1,0%,·,·,0%[46.1 µM],-24%,-3%,21%,?
COc1ccc(OCC(=O)Nc2ccc3c(c2)nc(CCn2ccccc2=O)n3C)cc1,-1%,·,·,·,-24%,-7%,2%,·
Cc1ccc2occ(CC(=O)N3CCN(c4cccc(Cl)c4)CC3)c2c1,·,4%,-9.5%,28%[46.1 µM],-22%,·,·,-15%[46.1 µM]
CCc1nnc(NC(=O)CSCc2cc(=O)n3nc(C)sc3n2)s1,-5%,·,·,·,16%,-1%,3%,·
Cc1ccccc1OCC(=O)N/N=C/c1cn(Cc2ccccc2)c2ccccc12,-4%,-25%,-4.6%,?,-13%,8%,4%,?
CC1CCCCC1NC(=O)CN1c2cccc3cccc(c23)S1(=O)=O (configuration not stated),2%,·,·,-8%,5%,·,-24%,-16%
COc1ccc(CCNc2nc(-c3sc(C)nc3C)cs2)cc1OC,-20%,?,-7.6%,?,25µM*,-5%,6%,?
Cc1cc(NC(=O)c2ccc(Cl)cc2)n(CCOC(=O)c2ccc(Cl)cc2)n1,24%,28%,-6.9%,-13%,-24%,1%,-8%,-13%
O=C(CCN1C(=O)/C(=C/c2ccccc2Cl)SC1=S)N1CCCC1,2%,·,·,-15%[46.1 µM],?,-8%,-1%,0%
Cc1ccc(NC(=O)c2ccc(S(=O)(=O)N3CCCCC3)cc2)cc1,-5%,-3%,-0.1%,2%,3%,0%,5%,?
CCOC(=O)c1cc(-c2ccc(OC)cc2)nc2c1c(C)nn2CCC(N)=S,11%,·,·,?,-21%,·,-20%,?
Cc1ccc(C(=O)OCC(=O)N2CCC(Cc3ccccc3)CC2)cc1N,0%,·,·,?,-6%,·,-3%,0%[46.1 µM]
CC(Sc1nccn1C)C(=O)c1c(N)n(C)c(=O)n(C)c1=O (configuration not stated),-1%,·,·,5%,0%,·,-9%,6%
CCN(CCn1cccn1)C(=O)c1cc(COc2ccccc2SC)on1,-4%,·,·,-19%,10%,-12%,-8%,-12%
OC1CCCC1,-6%,4%,3.8%,·,0%,·,-3%,·
O=C(CN1C(=O)COc2ccccc21)Nc1ccc(F)cc1,-21%,-2%,4.1%,·,4%,-141%,-30%,·
COc1ccccc1C=NN=Cc1ccccc1OC,·,·,·,?,-1%,·,-22%,0%
O=C(COC(=O)CNC(=O)c1cccc([N+](=O)[O-])c1)Nc1cccc(S(=O)(=O)N2CCCC2)c1,-1%,-19%,?,-25%,-13%,-13%,2%,15%
CC1CCCC(C)N1C(=O)CSc1nc2ccccc2c(=O)[nH]1 (configuration not stated),4%,·,·,-4%[46.1 µM],-14%,2%,5%,9%[46.1 µM]
COC(=O)c1cccc(NC(=O)/C=C/c2cccc([N+](=O)[O-])c2)c1,1%,-2%,2.9%,?,?,14%,3%,-24%
CCO/C=C1\C(=O)N(CC)c2ccccc21,-10%,-5%,-1.7%,-11%,-17%,-14%,-6%,2%
Cc1cc(C)cc(C(=O)NC(CC(N)=O)c2ccc(NC3CCCCCCC3)c([N+](=O)[O-])c2)c1 (configuration not stated),-2%,·,·,·,-19%,2%,-5%,·
O=C(CSc1nnnn1C1CCCCC1)NCCc1ccccc1,5%,-5%,2.3%,-2%,·,-61%,-8%,24%
CCC(C)[C@H]1CNC(=O)C(=O)N1CCCc1cc(OC)c(OC)c(OC)c1 (some centres not stated),2%,·,·,·,-5%,-4%,-5%,·
Cn1c2c(c(=O)[nH]c1=O)C(NC(=O)c1ccco1)(C(F)(F)F)C(=O)N2 (configuration not stated),-1%,12%,-2.9%,4%,-18%,8%,2%,15%
CC(C)(C)OC(=O)N1CCC(c2c(C(=O)Nc3ccc4c(c3)OCO4)cnn2-c2ccccc2)CC1,·,-16%,-9.2%,·,6%,·,·,-15%[46.1 µM]
CCc1ccccc1OCC(=O)Nc1ccc2c(c1)OCCO2,-6%,·,·,?,31%[activator],-31%,-12%,1%[46.1 µM]

# Additional records
compound,SARS PLP yeast,Cruzain noTriton,Cruzain inh Det,Marburg entry inh,StopGo reporter,NS1 inh,RE007 growth inh,LASV entry inh
O=S(=O)(N/N=C/c1ccc(F)cc1)c1ccccc1,1%,·,·,?,98%[activator],1%,3%,?
CC(=O)n1nc(-c2ccco2)nc1SCc1ccccc1,-45%,-16%,-4.4%,8%,37%[activator],-34%,0%,-4%
CCN(CC)S(=O)(=O)c1cccc(-c2nnc(SCC(=O)NCCC3=CCCCC3)n2N)c1,-8%,?,-3.9%,?,?,-12%,-3%,4%
Cc1ccc(C)c(N2CCN(Cc3nnc(-c4ccc5c(c4)OCO5)o3)CC2)c1,·,4%,-5.9%,-21%[46.1 µM],1%,·,·,12%[46.1 µM]
CCOC(=O)CSc1nnc(C)c(=O)[nH]1,4%,-6%,3.5%,8%,22%,18%,10%,11%
CCOc1ccc2nc(SCC(=O)NC3CCCCC3)[nH]c2c1,-1%,·,·,10µM*,17%,-3%,12%,1%[46.1 µM]
CN(CC(=O)Nc1ccc(Cl)c(C(F)(F)F)c1)C(=O)Cc1cccs1,-1%,·,·,-28%[46.1 µM],-23%,7%,14%,?
Cc1ccc(Nc2nc3c(S(=O)(=O)c4ccccc4)nnn3c3ccc(Cl)cc23)c(C)c1,·,2%,0.1%,13%[46.1 µM],5%,·,·,·
Cc1ccc(Cl)cc1NC(=O)c1oc2ccc(S(=O)(=O)N3CCCCCC3)cc2c1C,·,0%,0.9%,·,0%,·,·,-10%[46.1 µM]
CCOc1ccc(NC(=O)CNC(=O)c2ccc(OC)c(OC)c2)cc1,·,4%,-4.0%,?,0%,?,16%,-1%
S=c1[nH]ccn1-c1cccc(Cl)c1,2%,-2%,2.4%,?,-18%,9%,2%,-3%
COc1ccc(CN2CCC(n3nccc3NC(=O)C3CC3)CC2)c(Cl)c1OC,-4%,·,·,?,-3%,-14%,-1%,11%
COc1cccc(-c2nc(CC(=O)O)cs2)c1OC,2%,-8%,0.5%,14%,24%,-3%,13%,11%
COC(=O)[C@@]1(Cc2ccc(F)cc2)[C@H]2c3cc(C(=O)N(C)C)n(Cc4ccccn4)c3C[C@H]2CN1C(=O)c1ccccc1,-17%,?,-5.3%&0.5%,-27%,?,-17%,-28%,?
CC(C)c1ccc(NCCC(=O)c2ccc(Br)cc2)cc1,16%,?,2.9%,?,-13%,-6%,-2%,8%
CC(C(=O)NC(C)(C)C)N(Cc1cccs1)C(=O)CCN1CCc2ccccc21 (configuration not stated),-1%,·,·,?,?,·,1%,?
CCSc1ccc(-c2ccc(C)cc2)nn1,3%,·,·,?,-16%,·,7%,?
CSc1ncc(C(=O)Nc2ccc(Cl)cc2)c(C)n1,-1%,·,·,4%[46.1 µM],-8%,-7%,9%,4%[46.1 µM]
CCC(=NCCC1=CCCCC1)c1c(O)[nH]c(=O)[nH]c1=O,12%,-6%,1.3%,-1%,0%,-2%,0%,-13%
CCC[C@@H]1C[C@@H](C(=O)NC(C(C)Cl)[C@H]2O[C@H](SC)[C@H](O)[C@@H](O)[C@H]2O)N(C)C1 (some centres not stated),-1%,0%,1.2%,·,-18%,-6%,7%[18.4 µM],·
CCCNC(=O)c1ccccc1NC(=O)CN(c1ccccc1OCC)S(C)(=O)=O,2%,-2%,5.9%,28%&28%,-2%,-1%,0%,11%
CN(C(=O)c1c2c(nc3ccccc13)C(=O)N(C1CCCCC1)C2)c1ccc(F)cc1,·,-1%,-4.6%,·,0%,·,·,10%[46.1 µM]
COc1nc(NCCO)nc(Nc2ccc([N+](=O)[O-])cc2)n1,12%,-1%,-12%,?,-8%,6%,11%,11%
COc1cccc(Cn2c(NCc3ccco3)nc3c2c(=O)n(C)c(=O)n3C)c1,4%,-9%,-1.0%,?,?,-6%,22%,?
Cc1cccc(C)c1NS(=O)(=O)c1ccc(F)cc1,-17%,10%,2.2%,17%,-16%,-13%,1%,1%
O=C(/C=C/c1ccccc1)NC(=S)Nc1ccc(N2CCOCC2)c(Cl)c1,1%,-26%,-0.8%,16%,-11%,-4%,13%,0%
COC1OC(COCc2ccccc2)C(N)C(OCc2ccccc2)C1OCc1ccccc1 (configuration not stated),·,·,·,?,?,·,-10%,-28%[46.1 µM]
COc1cc(-c2nc(CN3CCN(C(=O)c4ccco4)CC3)c(C)o2)ccc1F,0%,·,·,?,-13%,-7%,-1%,?
O=C(N/N=C/c1cccc(Br)c1)c1ccc(Br)cc1,-2%,·,·,-14%[46.1 µM],-8%,·,-7%,2%[46.1 µM]
Cc1ccc(Cn2nnnc2CN2CCC(O)(c3cccnc3)CC2)cc1,0%,·,·,·,-11%,6%,-7%,·

# Carrying on:
compound,SARS PLP yeast,Cruzain noTriton,Cruzain inh Det,Marburg entry inh,StopGo reporter,NS1 inh,RE007 growth inh,LASV entry inh
COc1cc(C(c2c(C)n(C)n(-c3ccccc3)c2=O)c2c(C)n(C)n(-c3ccccc3)c2=O)cc(Br)c1O,3%,·,·,·,-14%,4%,22%,·
COc1ccc(CCNC(=O)CSc2nnnn2-c2ccccc2)cc1,0%,11%,-4.3%,-1%,-18%,-6%,6%,3%
COc1ccccc1-c1nn2c(=O)cc(CN3CCN(S(=O)(=O)c4ccc(C)cc4)CC3)nc2s1,·,-8%,3.6%,·,15%,·,·,?
COc1ccc(-c2ccc(NS(=O)(=O)c3cccc(Cl)c3)cc2)nn1,·,-25%,-9.5%,·,18%,·,·,4%[46.1 µM]
